GLA inh pH 4.5: blocks human alpha-galactosidase A at pH 4.5; P06280; purified enzyme, 4-MU-alpha-Gal fluorescence, pH 4.5; activity change, negative = inhibition, % at 105 µM; 230,000 tested, under 10 active; inconclusive = small, poorly fitted or top-dose-only inhibition, or a rising curve; inactive = flat fitted curve, though single readings scatter; no compound was filed as active;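 also: 0% = full activity with enzyme and -100% = basal without enzyme; dose as in the result columns while the protocol names 77 µM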
Target sequence (P06280 whole entry, looked up): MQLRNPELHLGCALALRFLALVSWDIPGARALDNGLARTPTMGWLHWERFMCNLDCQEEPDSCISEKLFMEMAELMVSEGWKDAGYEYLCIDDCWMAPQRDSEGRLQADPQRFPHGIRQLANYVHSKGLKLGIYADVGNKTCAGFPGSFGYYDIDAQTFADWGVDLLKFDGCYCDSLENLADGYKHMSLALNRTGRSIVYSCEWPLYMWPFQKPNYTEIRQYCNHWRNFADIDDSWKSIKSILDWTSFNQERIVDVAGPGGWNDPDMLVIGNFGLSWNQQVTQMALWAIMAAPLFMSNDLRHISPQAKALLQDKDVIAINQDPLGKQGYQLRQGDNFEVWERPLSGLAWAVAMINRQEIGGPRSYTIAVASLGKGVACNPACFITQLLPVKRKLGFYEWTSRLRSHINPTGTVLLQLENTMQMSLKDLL
Rango dissoc inh: inhibition of RanGTP-driven Rango-importin beta dissociation; Potency, µM (series often up to 46.1 µM), inactives show at the top dose activity change, negative = inhibition; Biochemical FRET Rango-importin beta, RanGTP-induced dissociation; AID 540253; 0.071% of 340,000 active; active means falling FRET ratio curve, often poorly fitted, with flat reads before Ran was added; inconclusive means other falling curves, or compound fluorescence or quenching; inactive means flat or rising ratio curve;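 also: potency is read from the fitted curve at half-maximal effect; % of control where 0% means no effect; nearly all actives have a fitted effect of over 45% in size; -100% = wells without RanGTP and RCC1; the record marks most hits as doubtful in a second field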
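Compounds sat 5 min at room temperature with 0.1 uM Rango biosensor plus 0.25 uM importin beta, then FRET pre-read. RanGTP-RCC1 (0.6 uM Ran, 2mM GTP, 0.2 uM RCC1) added for 45 min, and the CFP/YFP post-read measured blocked complex dissociation.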
Rango complex inh: Rango-importin beta binding inhibition; Q14974; Rango CFP/YFP FRET sensor + importin beta, 45 min; Potency, µM (titrated, usually from 92.2 µM), for inactives: top-dose inhibition of complex formation; 0.031% of 340,000 active; AID 540263; active = rising FRET ratio curve, often small or poorly fitted; inconclusive = mostly compound fluorescence or quenching in the first reads; inactive = flat curves in all reads;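 also: potency is read from the fitted curve at half-maximal effect; 0% = DMSO wells and 100% = buffer wells lacking importin beta; nearly all actives have a fitted effect of over 15% in size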
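Inhibition scored from the CFP 486 nm/YFP 530 nm FRET ratio 45 min after adding 0.125 microM importin beta to 50 nM Rango biosensor preincubated 5 min with compound (room temperature, PBS with DTT, Tween-20, BSA). No-importin wells as positive control.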
miR-21 FLuc: miR-21 reporter, rising signal. HeLa miR-21 FLuc reporter, luciferase, 48 h. Potency, µM (series often up to 38.3 µM), inactives show at the highest dose reporter change, positive = more light. 340,000 tested, under 10 active; active = well fitted rising curve with a large enough effect; inconclusive = small, poorly fitted or top-dose-only effect; inactive = no such curve, though single readings can be large or run the other way;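 also: % of control where 0% means no effect; miR-21 action dims this reporter so a rising signal means less miR-21 action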
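HeLa miR-21-FLuc reporter line, endogenous miR-21; 2000 cells/well in DMEM/10% FBS; compound titration up to ~40uM final, 48 h, 37 degree Celsius; luciferase detection reagent, 15 min lysis, CCD luminescence.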
* marks the source's active call; other numbers are inactive results; ? = inconclusive; · = no result given.

GLA inh pH 4.5	Rango dissoc inh	Rango complex inh	miR-21 FLuc	molecule
2.0	2.3%	3.7%	-20.7%	CCCS(=O)(=O)C/C(N)=N/OC(=O)c1ccccc1Cl
1.2	-8.4%	0.5%	-6.2%	CCSc1nnc(NC(=O)c2ccc(S(=O)(=O)N(C)C)cc2)s1
-5.9	-12.1%	0.3%	-14.5%	C/C(=N\NC(=S)NCc1ccccc1)c1ccc(Cl)cc1
-4.2	-8.5%	0.0%	-3.0%	Cc1cc(C)c(NC(=O)c2oc3ccccc3c2COc2ccccc2)c(C)c1
-0.2	4.3%	-0.4%	0.5%	Cc1ccc(N2/C(=N/c3nc(C)cc(C)n3)NC(=O)CC2C(=O)O)cc1 (centres undefined)
·	-1.7%	-2.0%	-1.5%	Cc1ccc(OCC(=O)N(C)CC(=O)Nc2cccc(F)c2)cc1
·	0.3%	-4.2%	·	O=C(/C=C/c1cccc(F)c1)OCC(=O)N1CCCc2ccccc21
·	-15.2%	4.1%	2.0%	COc1cccc(CNC(=O)c2cccnc2Sc2ccccc2)c1
·	?	3.5%	·	CN1CCC[C@H]1CCNC(=O)c1c(-c2ccsc2)sc2ccccc12
-8.3	10.2%	1.2%	-4.0%	COc1ccccc1NS(=O)(=O)c1cccc2nsnc12
-2.4	-11.4%	1.7%	-8.1%	COc1ccc(S(=O)(=O)NCCSc2ccc(Cl)cc2)cc1OC
6.4	-3.6%	-3.3%	-21.5%	C/C(=N\O)c1c(C)c2ccccc2n1C
-8.7	1.8%	-4.7%	27.0%	Oc1ccccc1Nc1nc(NCC2CCCO2)c2ccccc2n1 (centres undefined)
·	?	?	?	COc1cc(/C=C2\CCC/C(=C\c3ccc(O)c(OC)c3)C2=O)ccc1O
·	-0.4%	0.8%	·	Cc1occc1C(=O)Nc1ccccc1NC(=O)c1ccoc1C
2.5	-12.0%	-1.3%	-2.9%	COc1ccc(N(CC(=O)O)S(=O)(=O)c2ccccc2[N+](=O)[O-])c(OC)c1
·	0.5%	0.0%	·	CC(Sc1nnc(Nc2ccccc2F)s1)C(=O)NC1CC1 (centres undefined)
·	-7.1%	-3.5%	·	CCOC(=O)c1nn(-c2ccccc2C)c(=O)cc1OCC(=O)N1CCN(c2ccccc2)CC1
1.8	-4.3%	-1.6%	6.6%	O=C(NC1CCCc2c1cnn2-c1ccc(F)cc1F)c1ccccn1 (centres undefined)
4.3	2.8%	1.3%	4.4%	CC1(C)CC(=O)C(C(C2=C(O)CC(C)(C)CC2=O)c2ccc(Cl)c([N+](=O)[O-])c2)C(=O)C1 (centres undefined)
-0.9	0.9%	-3.1%	0.1%	CC(C)N1CCN(C2CSCCSC2)CC1CCO (centres undefined)
·	13.9%	7.2%	·	Cc1cccn2c(=O)nc(SCC(=O)N3CCN(c4ccccc4)CC3)nc12
·	-10.5%	-0.1%	·	COc1cccc(NC(=O)Cc2csc(NC(=O)Nc3ccccc3OC)n2)c1
-1.9	0.1%	7.8%	-1.0%	CNC(=O)CN(c1cccc2ccccc12)S(C)(=O)=O
·	5.3%	3.9%	·	CCOC(=O)c1cocc1C(=O)O
·	-7.7%	-1.9%	-1.4%	CCCCc1cc(=O)oc2cc(OC(C)C(=O)NCc3ccccn3)c(Cl)cc12 (centres undefined)
·	-14.1%	?	·	Oc1cc(CNCc2ccccc2)c(O)cc1CNCc1ccccc1
-13.9	?	?	-5.9%	COc1cc([C@@H]2[C@H]3CNCC=C3C(C#N)=C(N)C2(C#N)C#N)ccc1OC(C)C
6.0	-0.9%	1.4%	-2.3%	CCN(CC)S(=O)(=O)c1ccc(N2CCCC2)c(NS(=O)(=O)c2ccc([N+](=O)[O-])cc2)c1
-1.4	·	·	-56.3%	COCC(=O)Nc1ccc(C(=O)Nc2ccccc2Cl)cc1
-3.1	39.1%	1.9%	-0.6%	Cc1ccc(/C=N/NC(=O)c2nnn(-c3nonc3N)c2CSc2ccccc2)cc1
-1.6	-4.2%	0.4%	0.8%	CCCN1C(=O)C2(C(C(=O)c3ccc(C)o3)=C(O)C(=O)N2CCCOC)c2ccccc21 (centres undefined)

In the list so far, these have a halogen.
GLA inh pH 4.5	Rango dissoc inh	Rango complex inh	miR-21 FLuc	molecule
2.0	2.3%	3.7%	-20.7%	CCCS(=O)(=O)C/C(N)=N/OC(=O)c1ccccc1Cl
-5.9	-12.1%	0.3%	-14.5%	C/C(=N\NC(=S)NCc1ccccc1)c1ccc(Cl)cc1
·	-1.7%	-2.0%	-1.5%	Cc1ccc(OCC(=O)N(C)CC(=O)Nc2cccc(F)c2)cc1
·	0.3%	-4.2%	·	O=C(/C=C/c1cccc(F)c1)OCC(=O)N1CCCc2ccccc21
-2.4	-11.4%	1.7%	-8.1%	COc1ccc(S(=O)(=O)NCCSc2ccc(Cl)cc2)cc1OC
·	0.5%	0.0%	·	CC(Sc1nnc(Nc2ccccc2F)s1)C(=O)NC1CC1 (centres undefined)
1.8	-4.3%	-1.6%	6.6%	O=C(NC1CCCc2c1cnn2-c1ccc(F)cc1F)c1ccccn1 (centres undefined)
4.3	2.8%	1.3%	4.4%	CC1(C)CC(=O)C(C(C2=C(O)CC(C)(C)CC2=O)c2ccc(Cl)c([N+](=O)[O-])c2)C(=O)C1 (centres undefined)
·	-7.7%	-1.9%	-1.4%	CCCCc1cc(=O)oc2cc(OC(C)C(=O)NCc3ccccn3)c(Cl)cc12 (centres undefined)
-1.4	·	·	-56.3%	COCC(=O)Nc1ccc(C(=O)Nc2ccccc2Cl)cc1

Further compounds:
GLA inh pH 4.5	Rango dissoc inh	Rango complex inh	miR-21 FLuc	molecule
·	-1.4%	-0.6%	-1.2%	FC(F)(F)c1ccccc1CN1CCCC(N2CCN(c3ccccc3)CC2)C1 (centres undefined)
2.1	0.0%	2.1%	1.3%	O=C(Cn1ccc(C(F)(F)F)n1)Nc1cccc(S(=O)(=O)N2CCCCC2)c1
·	12.1%	3.2%	·	CCc1ccccc1-n1c(SCC(=O)c2c(N)n(C3CC3)c(=O)[nH]c2=O)nnc1N1CCOCC1
-24.6	-7.6%	3.5%	-0.2%	CN(C)CCCN1CC(C(=O)O)CC1=O (centres undefined)
22.6	2.5%	4.8%	-21.1%	Cc1ccc(C2=NN(C(=O)c3cccs3)C(c3ccccc3O)C2)cc1 (centres undefined)
-2.3	6.2%	?	-16.5%	O=C(NNC(=O)C1CC1c1ccccc1)c1ccccc1F (centres undefined)
·	-11.3%	-0.3%	-8.2%	O=C(N/N=C/c1ccccc1F)c1ccccc1OCc1ccccc1
-0.6	16.6%	5.0%	-6.6%	O=C(COc1cccc(NC(=O)c2ccccc2)c1)c1ccccc1
2.1	-19.5%	?	-9.8%	CC1CCc2c(sc(NS(=O)(=O)c3ccccc3)c2C(=O)OC(C)C)C1 (centres undefined)
-15.1	-8.1%	3.3%	-30.4%	CCOc1ccc2nnc(-c3ccc(Br)cc3)n2n1
-2.4	6.8%	2.9%	2.6%	CC1=CS(=O)(=O)CC1Sc1nc(C)n[nH]1 (centres undefined)
·	?	2.4%	9.4%	COc1ccc(-n2nc(C(=O)NCC(=O)NC3CCCCC3)c3ccccc3c2=O)cc1
-7.0	-10.0%	-3.8%	-0.6%	CCOC(=O)N1CCN(c2nc(C(F)(F)F)nc3c(C)cc(C)cc23)CC1
·	2.3%	-0.5%	-20.1%	C[C@]12C[C@H](O)[C@H]3[C@@H](CCC4=CC(=O)CC[C@@]43C)[C@@H]1CC[C@@H]2C(=O)CO
-8.8	-7.1%	-1.8%	-4.9%	CCc1ccccc1Nc1nc(N)nc(CSCC(=O)Nc2ccc(C)c(C)c2)n1
7.6	-17.3%	1.3%	-8.7%	COc1cccc(C2CC(c3cccc(OC)c3)n3nc(N)nc3N2)c1 (centres undefined)

Next part, overlapping the part above by 2 compounds.
GLA inh pH 4.5	Rango dissoc inh	Rango complex inh	miR-21 FLuc	molecule
-8.8	-7.1%	-1.8%	-4.9%	CCc1ccccc1Nc1nc(N)nc(CSCC(=O)Nc2ccc(C)c(C)c2)n1
7.6	-17.3%	1.3%	-8.7%	COc1cccc(C2CC(c3cccc(OC)c3)n3nc(N)nc3N2)c1 (centres undefined)
-2.6	-10.2%	1.7%	-15.0%	CCCCCC(=O)Nc1cccc2ccccc12
0.1	16.9%	-0.4%	-0.4%	CSc1nnc(CNC(=O)c2ccccc2)n1-c1ccc(F)cc1
4.1	-9.4%	-1.2%	-16.4%	Nc1ccccc1SC(C[N+](=O)[O-])c1ccccc1 (centres undefined)
-2.5	-0.7%	0.4%	0.0%	COc1ccc(C(=O)Cn2c(C(=O)/C=C/c3ccccc3)nc3ccccc32)cc1
·	-2.3%	0.5%	-7.0%	Cc1ccccc1NC(=O)c1ccccc1-c1ccccc1
·	-6.8%	-1.6%	·	O=C1CC/C=C\C[C@@H](CC(=O)N(CCO)Cc2ccccc2)C(=O)N2CCC[C@H]2CO1
-0.1	-5.6%	-1.5%	-4.6%	OCCC1CN(Cc2cccc3nonc23)CCN1Cc1ccsc1 (centres undefined)
0.9	16.5%	1.9%	-1.8%	CC(=O)Nc1ccc(NS(=O)(=O)c2cc([N+](=O)[O-])ccc2C)cc1
5.7	-2.9%	-0.5%	-8.0%	COc1ccc(Br)cc1C(=O)Nc1ccc(C(=O)NCC(C)C)cc1
·	4.9%	-1.7%	·	CCCN(CC(=O)Nc1ccccc1C)C(=O)Cc1n[nH]c(=O)c2ccccc12
·	-5.6%	4.6%	·	COc1ccc(C(=O)NCCCc2ccccc2)cc1
·	10.2%	-0.3%	·	O=c1[nH]c2ccc([N+](=O)[O-])cc2[nH]1
3.6	-2.1%	1.2%	23.0%	O=C(c1ccc(CSCc2ccccc2F)o1)N1CCN(c2ccc(N3CCOCC3)nn2)CC1
9.5	-1.1%	0.1%	-1.1%	NS(=O)(=O)c1cccc(NC(=O)c2cncc(Br)c2)c1
·	-9.9%	7.4%	·	O=C1CCC[C@@H]2[C@H](Cc3ccccc3)[C@@H](O)C[C@@H]3CCN1[C@@H]32
·	?	?	·	Cc1ccc(Nc2nnc(SCC(O)=C(C#N)c3nc4ccccc4[nH]3)s2)c(C)c1
·	10.7%	-1.1%	0.9%	COCCNC(=O)[C@H]1N2C(=O)c3c(ccc(OC)c3OC)C2SC1(C)C (some centres undefined)
·	-5.8%	-2.6%	·	COc1cc2cc(CCCOC(=O)CCC(=O)O)oc(=O)c2cc1OC
·	0.2%	4.2%	-19.3%	COc1ccc2oc(=O)c(C(=O)Nc3cccc(C(C)=O)c3)cc2c1
3.7	3.9%	0.0%	0.5%	O=C(Cc1ncc(C(F)(F)F)cc1Cl)N1CCN(c2ccccn2)CC1
·	3.5%	0.2%	-4.4%	COc1ccccc1NC(=O)Cn1cnc2c(oc3nc4c(cc32)CCCC4)c1=O
1.6	22.9%	4.3%	-1.6%	Cc1ccc(-c2sc(-c3ccccc3)nc2CC(=O)Nc2ccccc2F)cc1
·	7.0%	0.4%	·	COCC(=O)Nc1ccc(N2CCOCC2)c(S(=O)(=O)Nc2ccc(OC)cc2)c1
·	3.5%	0.5%	-5.3%	COCCCNc1nc2ccccc2nc1NS(=O)(=O)c1ccc(OC)cc1
-3.5	-6.8%	0.2%	-1.0%	CCC(=O)Nc1cc(=O)[nH]c2nc(-c3ccc(Cl)cc3)nn12
5.0	-1.1%	-4.3%	10.2%	COc1ccc(C(=O)NCCn2cc(SCC(=O)Nc3cc(C)on3)c3ccccc32)cc1OC
-2.7	20.8%	-0.3%	-1.6%	COc1ccc(CNC(=O)N[C@@H](CC(C)C)C(=O)O)cc1OC
·	10.2%	1.5%	·	CN(N=C(c1ccccc1)c1ccccc1)c1ccccc1
·	-4.1%	-1.0%	-5.8%	O=C(c1ccc2oc(Cc3ccc(Cl)cc3)nc2c1)N1CCCCC1CCO (centres undefined)
-13.3	10.0%	-0.5%	5.6%	Cc1nn(C)cc1C(C(=O)NC1CCCCC1)N(Cc1ccc(F)cc1)C(=O)c1cnccn1 (centres undefined)
-4.8	1.7%	-1.1%	-4.8%	CC(=O)Nc1sc(C)c(C)c1C(=O)OC(C)C
5.0	15.7%	3.6%	-0.1%	O=C(Cn1ncc2c(=O)oc3ccccc3c21)N(Cc1ccco1)C1CCCCC1
-7.2	-11.4%	0.4%	3.6%	COc1ccc(-c2[nH]ncc2CN2CCCO2)c(F)c1

High-throughput results deposited in PubChem by National Center for Advancing Translational Sciences (NCATS).

Some of the compounds tested; the hit share may differ from the screen's.
